# Assay outcomes as filed in PubChem.
# Vif TR-FRET – inhibitors of Vif binding to APOBEC3G peptide, primary screen, biochemical, TR-FRET, GST-Vif 1-94, biotin-A3G peptide, dose response retest (AID 1117319). 260,000 tested, 0.57% active. Virion infectivity factor (Human immunodeficiency virus type 1 group M subtype B (isolate …. TR-FRET GST-Vif / biotin-A3G peptide binding; higher % means a stronger effect; test concentration not given here; strong numbers were not always called active. inhibition, %, or IC50 in µM where a hit was titrated;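 active = above the screen mean plus three standard deviations and confirmed in dose response; inconclusive = results disagree or hit not tested in dose response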;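 note: Vif residues 1-94 fused to GST binding biotinylated APOBEC3G peptide 110-148; 0% = full assay without inhibitor and 100% = GST in place of GST-Vif; retest series ran down from 100 µM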
# RanGTP-Impb inh – inhibitors of RanGTP-importin-beta interaction, primary screen, biochemical, FRET, CFP-Ran, YFP-importin-beta, homogeneous; Ran GTPase (GTP-bound) - importin-beta complex; cell-free CFP-Ran/YFP-importin-beta FRET ratio; inhibition, % (test concentration not listed); 300,000 tested, 1.1% active;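 active = most replicates above 15%; inconclusive = exactly half above 15%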;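 note: 0% = DMSO wells and 100% = Ran loaded with GDP instead of GTP; wells of about 40 µL received 100 nL stock; the first replicate is given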
# T cruzi repl – inhibitors of intracellular T. cruzi growth, primary screen, luminescence, NIH3T3 host cells | T. cruzi beta-gal in NIH3T3, 90 h | inhibition, % (no concentration beside the values) | 300,000 tested, 1.4% active | AID 1885, 2009;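 active = mean inhibition across valid replicates above about 55%, limit read from the data; inconclusive = mean below that limit but half or more replicates reach it; inactive = mean below it, under half of replicates reach it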;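 note: signal also drops with host cell toxicity which is not excluded here; 0% = plate median of DMSO wells and 100% = zero luminescence signal; higher percent means less beta-gal luminescence so fewer parasites; stock transfer was 50 nL into about 50 µL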
# A1 inh – caspase 3/7 activation in MEF A1-2A-BIM cells, primary screen, A1 inhibitor project, cell-based, luminescence, HTS; Caspase-Glo 3/7 luminescence, 3 h; percent of clofoctol response, vehicle zero; caspase activation, % (concentration not given with the values); 330,000 tested, 0.066% active; AID 2462, 2010;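 active = over half of replicate activation scores above 10%, or exactly half above 10 with the replicate mean above 10; inconclusive = replicate mean below 10 yet half the replicates above 10; inactive = over half of replicates below 10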;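 note: wells of about 30 µL received 50 nL stock; many hits fall short of the cut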
# rRNA inh HTS – reduced GFP signal of wild-type E. coli, primary screen, bacterial rRNA inhibitor project, GFP/RFP fluorescence, OD600, single point; E. coli WT GFP vs humanized-ribosome RFP mutants, 24 h; stronger effect = lower value; DMSO median 0, no signal -100; GFP signal change (wild-type ribosome), % (no concentration beside the values); 350,000 tested, 1.6% active; AID 720706, 2013;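 active = significant combined selectivity score with lowered wild-type GFP, culture density cut under 30%, mutant RFP and density less affected; inactive = any of these conditions unmet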; note: one replicate is shown; some compounds called inactive have numbers as strong as hits
# Calb FLC – C. albicans growth inhibition with fluconazole, primary screen, CaCi-2 strain, Alamar Blue fluorescence | C. albicans CaCi-2 (fluconazole-resistant clinical isolate) + fluconazole, 48 h | growth inhibition, % (concentration not given with the values) | 300,000 tested, 0.57% active | AID 1979, 2009;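 active = most replicates above 75%; inconclusive = exactly half above 75%; inactive = most below 75%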;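 note: all wells also contain fluconazole at 8 µg/ml as a sub-toxic cotreatment; 0% = median of DMSO wells and 100% = median of geldanamycin control wells; wells of about 8 µL received 7.5 nL stock; the first replicate is given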
# Beta apoptosis – inhibitors of cytokine-induced beta cell apoptosis, primary screen, luminescence; INS-1E cytokine-induced death, ATP luminescence, 48 h; percent of positive-control rescue, neutral wells zero; protection from apoptosis, % (no concentration beside the values); 300,000 tested, 0.8% active;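 active = all replicates at 75% or more, or half of them and the mean; inconclusive = half reach 75% but not the mean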;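 note: 0% = cytokine-treated negative control wells and 100% = positive control rescue; higher means more ATP so stronger rescue from cytokine killing; wells of about 40 µL received 100 nL stock; the first replicate is given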
# AF4-AF9 inh – inhibitors of AF4 peptide binding to AF9, primary screen, biochemical, AlphaScreen, biotin-AF4 peptide, FLAG-AF9, single point; AID 651704, 2012; inhibition, % at 10 µM; Protein AF-9 (Homo sapiens), P42568; 350,000 tested, 0.47% active;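 active = every replicate reaching a set inhibition limit, whatever the replicate mean, cut at about 25% in these data; inconclusive = mean inhibition reaches that limit but some replicates miss it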;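 note: 0% = plate neutral control median and 100% = total signal loss; the record names both 10 and 1 µM as test concentration; the first replicate is given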
# Target sequence (P42568 whole entry, looked up): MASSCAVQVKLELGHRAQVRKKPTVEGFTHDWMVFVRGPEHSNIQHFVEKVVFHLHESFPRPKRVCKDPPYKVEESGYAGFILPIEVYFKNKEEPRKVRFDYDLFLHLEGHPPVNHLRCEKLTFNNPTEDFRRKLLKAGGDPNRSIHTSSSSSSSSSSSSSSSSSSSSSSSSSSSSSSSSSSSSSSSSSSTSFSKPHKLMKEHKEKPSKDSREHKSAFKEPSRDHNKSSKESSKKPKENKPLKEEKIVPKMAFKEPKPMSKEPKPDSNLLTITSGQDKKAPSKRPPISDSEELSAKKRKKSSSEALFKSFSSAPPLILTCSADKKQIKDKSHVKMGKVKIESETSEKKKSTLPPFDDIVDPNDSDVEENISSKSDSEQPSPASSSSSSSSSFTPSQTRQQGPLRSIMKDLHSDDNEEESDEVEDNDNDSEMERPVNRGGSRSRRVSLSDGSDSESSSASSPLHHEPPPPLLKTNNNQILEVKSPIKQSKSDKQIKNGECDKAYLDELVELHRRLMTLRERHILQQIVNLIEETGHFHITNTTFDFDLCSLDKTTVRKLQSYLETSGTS
# rRNA inh HTS OD600 – also measured in rRNA inh HTS; calls as there; OD600 change, %; measured here: OD600 growth;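 optical density of the mix in the first replicate; 0 = DMSO median and -100 = no signal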
# rRNA inh HTS RFP – recorded beside rRNA inh HTS, whose call it bears; RFP signal change, %; measured here: RFP humanized mutant strains;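 first replicate; 0 = DMSO median and -100 = no signal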
# An asterisk follows results filed as active; ? = inconclusive; / = not tested or not shown. The list is partial, so the mix of outcomes need not match the whole.
smiles,Vif TR-FRET,RanGTP-Impb inh,T cruzi repl,A1 inh,rRNA inh HTS,rRNA inh HTS OD600,rRNA inh HTS RFP,Calb FLC,Beta apoptosis,AF4-AF9 inh
Cn1c(-c2cccc3ccccc23)n[nH]c1=S,-1.3%,0.3,5.4,-0.3,/,/,/,9.7,1.5,/
CN(c1ccccc1)S(=O)(=O)c1ccc2[nH]c(=O)[nH]c2c1,/,-3.5,-18.3,-0.3,10.7,3.4,-2.1,5.9,-2.6,3.4
COc1ccccc1NC(=O)CSc1nc2ccccc2n1C(C)=O,-1.4%,0.7,2.2,0.0,/,/,/,?,-0.1,/
Cc1ccc(-n2c(N)c(C#N)c(-c3ccccc3)c(C#N)c2=O)cc1,-4.5%,3.0,-3.9,0.1,/,/,/,-15.0,-0.6,/
CC(C)OCCCNC(=O)C(C)Oc1ccccc1 (stereo not given),-3.1%,2.1,-18.5,0.1,12.9,15.9,-7.8,-2.2,-2.7,5.6
O=C(COc1ncnc2ccc(Br)cc12)N1CCOCC1,-0.2%,-2.8,0.8,0.0,/,/,/,-4.1,1.9,/
CN(C)CC1CCCCC1OC(=O)c1ccc(S(=O)(=O)N(C)c2ccccc2)cc1 (stereo not given),/,0.0,21.1,1.2,3.7,-2.9,2.4,-2.3,-4.5,8.0
O=C(c1ccc2nc(Cc3cccc(Cl)c3)oc2c1)N1CCC(CO)CC1,/,2.7,-22.7,0.6,-6.8,-11.6,0.8,-8.1,5.4,0.5
CN1CCN(C(=O)c2ccc(CSc3ccc(Cl)cc3)cc2)CC1,16.0%,5.1,7.8,0.3,-9.8,-17.4,-8.8,-17.5,16.6,6.9
CCN(CCCNC(=O)CCCOc1cc(=O)n(C)c2ccccc12)Cc1ccccc1,/,8.1,55.1*,2.1,9.6,7.5,1.0,0.1,6.3,-1.4
Clc1ccc(COc2ccccn2)c(Cl)c1,4.0%,-0.4,-15.2,-1.8,/,/,/,?,-11.8,/
COc1ccc(-c2csc(NC(=O)CSc3nc(C)cs3)n2)cc1,8.8%,-3.7,14.8,0.4,/,/,/,?,-5.7,/
O=C(NC(=S)Nc1cccc2cc(O)ccc12)c1ccco1,2.5%,5.4,-14.3,0.0,-12.3,-15.6,5.3,14.9,-0.9,1.2
COc1ccc(CNC(C)C2COc3ccccc3O2)c(OC)c1 (stereo not given),11.2%,-0.9,44.1,-0.1,/,/,/,2.2,-3.9,/
COc1ccc(N2CC(C(=O)N[C@@H](C)C(=O)NC3CCCCC3)CC2=O)cc1 (stereo not given in full),/,3.1,-2.6,0.4,5.0,10.8,0.1,2.6,-7.2,-3.2
CCCc1c(-c2ccc(O)cc2)nn(-c2ccc(O)cc2)c1-c1ccc(O)cc1,10.9%,-2.3,-3.8,2.2,/,/,/,/,-1.2,/
Cc1cc(C)n(CC(=O)N2CCCC(C(=O)c3cccc(OC(C)C)c3)C2)n1 (stereo not given),-5.9%,?,11.0,0.3,-6.8,-11.1,-1.9,-7.3,4.0,-0.3
O=C(c1ccc(N2CCN(C3CC(=O)N(c4ccc(F)cc4)C3=O)CC2)cc1)c1cccnc1 (stereo not given),78.9%,3.5,-13.0,0.5,/,/,/,-1.7,-6.4,/
Cc1ccc(NC(=O)COC(=O)CC2CCCC2)cc1F,-0.6%,/,/,-0.5,-10.3,-3.1,4.0,/,-9.4,-1.6
Cc1ccc2[nH]c3c(=O)n(Cc4ccccn4)cnc3c2c1,-1.7%,3.7,-11.5,0.5,/,/,/,-2.0,-3.7,/
O=[N+]([O-])c1cc([N+](=O)[O-])c(Oc2cc(F)cc(F)c2F)cc1NN1CCCCC1,/,1.0,5.1,0.6,3.5,10.7,1.9,-7.9,6.2,1.3
O=C(Nc1ccc(Oc2cccnc2)cc1)c1ccc([N+](=O)[O-])cc1,-6.2%,-3.7,-13.4,-1.0,12.5,5.6,2.5,15.7,18.0,-1.9
CCOC(=O)C1(Cc2ccccc2C)CCCN(C(=O)c2ccc3nccnc3c2)C1 (stereo not given),-1.5%,2.2,7.9,-0.1,-15.3,-14.4,-2.1,-0.2,5.6,2.0
CCN(CC)S(=O)(=O)c1ccc(C)c(N=C=S)c1,?,-1.1,7.0,0.0,2.3,0.6,-4.0,-0.7,-7.7,-0.7
Cc1cc(NC(=O)CCCN2C(=O)/C(=C/c3ccccc3Cl)SC2=S)no1,2.7%,-5.8,4.3,0.8,8.6,12.3,1.4,-1.2,-2.2,-1.4
Cc1ccc(C(=O)NCC(=O)OCC(=O)N2CCCc3ccccc32)cc1,/,4.0,-10.8,-0.2,/,/,/,0.0,-2.6,/
Cc1cc2ccccc2c(=O)n1CC(=O)NCC(=O)N1CCN(c2ccccc2)CC1,?,1.9,-3.7,0.3,/,/,/,6.8,-10.1,/
O=C(CCc1ccccc1)Nc1ccccc1,/,1.3,3.3,-3.4,10.1,13.6,-3.3,1.7,-5.6,-0.3
Nc1nc2ccccc2n1C(=O)c1ccc(F)cc1,/,-2.1,-1.0,-8.5,-26.5,-26.1,-7.2,-5.5,13.6,-3.1
Cc1cc(Cn2nnnc2-c2ccncc2)cc(C)c1O,-2.8%,-1.0,0.7,-0.5,7.1,4.9,0.2,3.1,-4.0,0.6
Cc1cccc(N2N=C(C(=O)N3CC(=O)Nc4ccccc43)CCC2=O)c1,/,-2.7,-8.0,0.3,8.0,14.2,2.3,6.0,-1.5,-0.2
COCCNC(=O)C(C)Oc1ccc(Cl)cc1Cl (stereo not given),24.0%,-2.5,-6.6,?,3.6,2.8,-3.4,-7.5,-1.6,/
CC1(C(=O)N/N=C/c2ccc([N+](=O)[O-])o2)CC1(Br)Br (stereo not given),5.0%,4.6,50.2,0.4,/,/,/,91.5*,1.9,/
N/C(=N\OC(=O)c1ccco1)c1cccc(Br)c1,0.3%,2.5,3.1,/,/,/,/,1.6,/,/
CCOc1cc(-c2nc(C)c(C(C)=O)n2O)ccc1OCC(=O)Nc1ccc(F)cc1,14.9%,-1.3,-12.6,-0.3,12.2,8.9,2.1,33.8,8.7,-1.6
O=C(c1cc2n(n1)C(C(F)(F)F)CC(c1ccco1)N2)N1CCc2ccccc2C1 (stereo not given),33.2µM*,-4.3,8.8,-0.8,/,/,/,9.3,-15.9,/
CC(=O)c1cccc(NC(=O)/C(=C\c2cccnc2)NC(=O)c2ccco2)c1,/,-1.6,4.2,-0.7,9.3,7.8,1.6,0.8,-6.6,-1.1
Cc1ccc(-c2nnc(CCC(=O)NCc3csc(C)n3)o2)s1,3.4%,-2.3,-9.5,0.3,7.2,0.0,-4.6,-5.2,-1.5,-1.9
COC(=O)Cc1cc(=O)n2[nH]c(C(F)(F)F)nc2n1,-0.7%,-0.3,-10.7,0.8,/,/,/,-3.9,-4.9,/
CC1=CC(C)(C)[N+](C)(C)c2ccc(C)cc21,-4.2%,-2.3,-5.4,-0.3,17.1,10.4,3.1,2.9,1.0,-1.9
Cc1nn(C)c(C)c1NC(=O)COc1ccccc1C#N,/,/,/,1.2,5.1,13.3,0.0,/,-6.0,-0.7
O=c1c2ccccc2cnn1Cc1nnc(-c2cccs2)o1,/,-3.1,8.4,0.9,2.4,2.7,-2.1,-4.7,-4.4,-2.1
C=CCN1C(=O)/C(=C\c2ccc(OC(=O)c3ccco3)c(OC)c2)SC1=S,2.6%,18.7*,-9.2,-2.4,4.4,6.5,6.2,6.7,4.7,0.8
CCN1CCCC1CNC(=O)Cn1cc2c(n1)CCC(C)C2 (stereo not given),2.4%,-2.1,-3.1,-1.3,10.2,13.1,-0.4,-4.6,-5.6,3.5
O=C(O)c1ccc2nc(CO)[nH]c2c1,-4.0%,?,2.8,0.9,/,/,/,-9.0,/,/
O=C(NCCSc1c[nH]c2ccccc12)c1ccco1,1.6%,2.6,-17.0,1.0,-11.7,-19.2,-9.6,3.0,-4.8,-1.1
CSCCC(NC(N)=O)C(=O)NCc1ccccc1Cl (stereo not given),2.8%,-2.0,-10.9,0.1,1.4,2.0,-2.9,3.2,3.1,/
CC(Nc1cc(N2CCN(S(=O)(=O)N(C)C)CC2)ccc1[N+](=O)[O-])c1ccccc1 (stereo not given),-3.9%,2.2,31.9,1.2,-1.5,-9.3,-2.1,-0.9,14.9,7.0
CCOC(=O)C1(C)NC(c2ccco2)C2C(=O)N(c3ccc(C)cc3)C(=O)C21 (stereo not given),2.3%,-2.3,-6.6,0.8,/,/,/,0.8,-5.1,/
CCCCC(CC)C(=O)Nc1cccc(SC)c1 (stereo not given),-3.9%,-1.4,14.0,0.6,-4.8,-3.9,3.1,-32.2,-0.9,0.2
CC(C)CCNC(=O)NC(=O)COC(=O)/C=C/c1cc(Br)ccc1F,-1.6%,-7.5,-4.7,1.0,/,/,/,-28.5,-3.8,/
CC(=O)N1CSCC1C(=O)N1CCN(c2ccc(N3CCOCC3)nn2)CC1 (stereo not given),1.1%,0.1,0.2,-0.1,3.2,3.8,0.0,11.0,-6.5,-3.9
Cc1cc(O)c(C(C)C)cc1NC(=O)c1cccc(Cl)c1,-1.9%,0.0,22.7,0.5,-6.6,-15.2,-4.2,-17.0,-1.9,/
Cc1ccc(S(=O)(=O)N(C)C)cc1NC(=O)COC(=O)CN1C(=O)c2ccccc2C1=O,-3.4%,/,/,-0.4,12.5,3.6,0.8,/,-0.3,7.0
COc1ccccc1CC(NC(C)=O)C(=O)N1CCN(C(=O)c2cccs2)CC1 (stereo not given),-0.2%,-4.2,-4.3,-0.2,/,/,/,8.1,-4.8,/
CCCCN(Cc1ccccc1)C(=O)C1CCN(Cc2sccc2C)CC1,-2.6%,3.3,-22.8,-1.4,-3.0,-12.7,1.4,?,-3.3,3.0
